# Compound activity as filed in PubChem BioAssay.
# Env fusion inh: HIV envelope-mediated fusion inhibition; HeLa-JRFL Env/CEM21 cell fusion, luciferase; inhibition, % at 12.3 µM; hit rate 1.1% among 360,000; AID 651610;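 active means mean replicate inhibition score of at least 50 and every replicate individually at or above 50; inconclusive means only one of the two criteria met; inactive means mean below 50 and not all replicates reaching 50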;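 further: 0% = plate neutral controls and 100% = maraviroc near 300 nM; one replicate is shown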
# Rce1 inhib: inhibitors of yeast Ras-converting enzyme; Q03530; hit rate 0.27% among 290,000; calls only; yeast membranes, quenched prenylated peptide cleavage fluorescence;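 active means fall in fluorescence gain of 50% or more versus controls, with final raw signal at or below 3038400; inconclusive means same 50% fall but final raw signal above 3038400; inactive means fall in fluorescence gain under 50%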;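 further: plate controls were neutral control wells for no effect and wells lacking membranes for full effect; tested at 10 µM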
# Target sequence (Q03530 whole entry, looked up): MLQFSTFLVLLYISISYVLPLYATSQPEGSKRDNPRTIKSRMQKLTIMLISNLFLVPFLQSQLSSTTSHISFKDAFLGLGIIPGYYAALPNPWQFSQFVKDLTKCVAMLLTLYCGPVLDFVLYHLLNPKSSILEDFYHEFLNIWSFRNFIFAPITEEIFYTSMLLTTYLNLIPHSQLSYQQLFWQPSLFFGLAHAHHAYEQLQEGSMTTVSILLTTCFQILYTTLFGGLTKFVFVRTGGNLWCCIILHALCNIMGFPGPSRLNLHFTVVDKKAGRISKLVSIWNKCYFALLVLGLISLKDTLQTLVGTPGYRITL
# CSC inhib: cancer stem cell inhibition; AID 2717; cancer stem cell-like cells viability, luminescence; hit rate 1.1% among 300,000; inhibition, % at 7.5 µM;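 active means mean at 75% or more and at least half the replicates too; inconclusive means mean and replicates disagree; tested in HMLE shEcad cells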;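 further: 0% = median of negative and 100% = median of positive control wells; the first replicate is given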
# MT1-MMP act inh: inhibitors of human MT1-MMP activation | P50281 | HT1080 RFP-PRO-GFP cells, GFP/RFP ratio fluorescence, overnight; percent of plate control window, DMSO zero | GFP/RFP ratio change, % at 20 µM | hit rate 0.061% among 360,000 | AID 651647;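 active means GFP/RFP ratio change of at least 30% with cell ATP level not reduced by more than half and red fluorescence within 50% of control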; further: strong numbers were not always called active
#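 Test system: HT1080 cells expressing an RFP-PRO-GFP fluorescent reporter construct / Compound dosing: single-point 20 µM compound, 1% DMSO / Schedule: cells overnight before dosing, compound overnight, 37 °C, 5% CO2 / Evaluation: GFP/RFP fluorescence ratio / Control set: DMSO and RFP-L50D-GFP cell wells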
# PABP FP inh: PABP-poly(A) binding inhibition | P11940 | PABP-poly(A) RNA binding, fluorescence polarization | inhibition, % at 35 µM | hit rate 1% among 290,000;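 active means 50% or more with normal probe brightness, or confirmed in later tests; inconclusive means above 50% with abnormal brightness, or retests that disagree; inactive means below 50% or failed in later tests; about a fifth of its hits are not listed in these tables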;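 further: calls also rest on retests at 20 µM and on dose response follow-up; controls were probe without protein and protein plus probe with vehicle; some compounds called inactive have numbers as strong as hits; many hits fall short of the cut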
# Target sequence (P11940 whole entry, looked up): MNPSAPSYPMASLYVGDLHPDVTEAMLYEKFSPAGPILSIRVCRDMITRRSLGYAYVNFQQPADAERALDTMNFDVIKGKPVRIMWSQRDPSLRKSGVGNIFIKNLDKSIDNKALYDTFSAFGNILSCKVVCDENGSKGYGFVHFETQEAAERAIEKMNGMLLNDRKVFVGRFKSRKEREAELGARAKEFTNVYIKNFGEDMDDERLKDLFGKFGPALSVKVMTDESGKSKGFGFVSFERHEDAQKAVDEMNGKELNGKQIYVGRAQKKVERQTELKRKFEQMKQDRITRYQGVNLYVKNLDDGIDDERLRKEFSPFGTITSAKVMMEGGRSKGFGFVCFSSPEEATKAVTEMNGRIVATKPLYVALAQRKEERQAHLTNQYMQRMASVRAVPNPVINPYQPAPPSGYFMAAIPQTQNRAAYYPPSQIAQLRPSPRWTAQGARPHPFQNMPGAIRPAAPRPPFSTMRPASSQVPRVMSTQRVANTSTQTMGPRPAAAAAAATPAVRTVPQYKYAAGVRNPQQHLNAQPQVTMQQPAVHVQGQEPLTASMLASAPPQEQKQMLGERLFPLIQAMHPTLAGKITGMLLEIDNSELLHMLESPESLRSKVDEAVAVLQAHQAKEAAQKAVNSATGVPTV
# Yeast UUG start: alters start codon recognition fidelity in yeast. activity score, % at 18.7 µM. AID 602363. hit rate 0.13% among 350,000. S. cerevisiae UUG-firefly luciferase reporter, luminescence/redox ratio;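 active means replicate mean at a twofold rise or more, about +100% in these data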;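 further: firefly luciferase made from a UUG start codon reports start codon fidelity; reporter light over untreated wells divided by growth signal over untreated wells; some hits fall short of that in this replicate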
# eIF4H inh: inhibitors of RNA binding by human eIF4H; hit rate 0.94% among 290,000; eIF4H fluorescence polarization binding assay; Q15056; AID 2012; inhibition, % at 35 µM;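 active means 50% or more with normal probe brightness, or confirmed in later tests; inconclusive means above 50% with abnormal brightness, or retests that disagree; inactive means below 50% or failed in later tests; about a fifth of its hits are not listed in these tables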;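 further: calls also rest on retests at 20 µM and on dose response follow-up; 0% = protein and probe with vehicle and 100% = probe without protein; strong numbers were not always called active; many hits fall short of the cut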
# eIF4H inh retest: also measured in eIF4H inh; calls as there; inhibition, %; compound at 20 µM; confirmation average;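 mean of two retest wells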
# PABP FP inh retest: recorded beside PABP FP inh, whose call it bears; inhibition, %; compound at 20 µM; confirmation repeats;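 mean of two retest wells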
# MT1-MMP act inh RFP: recorded beside MT1-MMP act inh, whose call it bears; RFP signal change, %; measured here: RFP expression control read;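 0 = vehicle wells; hits needed this value within 50% of zero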
# * hit, by the source's call; i = inactive; ? = inconclusive; nt = not tested or not shown. Some of the compounds tested; rates above refer to the full screens.
SMILES,Env fusion inh,Rce1 inhib,CSC inhib,MT1-MMP act inh,MT1-MMP act inh RFP,PABP FP inh,Yeast UUG start,eIF4H inh,others
CC#CCN1c2ccccc2[C@]23C[C@@H](C(=O)OC)N(C(=O)NC(C)(C)C)C2=NC(C(=O)OC)=C(C(=O)OC)[C@H]13,-4.9,i,2.2,-5.6,-4.2,nt,-19.9,nt,
COc1cc(C)ccc1OCCOCCOc1ccc(C)cc1[N+](=O)[O-],1.6,i,-7.3,2.9,4.6,0.2,nt,-12.0,
CCC(=O)N1c2ccc(S(=O)(=O)CCC(=O)N3CCn4c3nc3ccccc34)cc2CC1C (stereo not drawn),15.9,i,4.4,-3.7,-4.1,-3.5,-11.4,-1.5,
O=C(Cn1c(=O)oc2ccccc21)NC(=O)NCc1ccccc1,nt,i,3.8,5.2,-2.3,5.7,12.9,-8.2,
CCOc1ccc(-c2nc(CS(=O)(=O)CC(=O)NCc3ccc(F)cc3)c(C)o2)cc1,0.0,i,0.5,-1.8,-3.3,-5.7,3.6,-5.4,
Nc1nonc1-c1nc2ccccc2n1CCC(=O)O,-89.8,i,-10.3,-4.0,2.9,-4.1,-16.5,9.8,
O=C(Nc1ccc2c(c1)CCC2)c1cc(S(=O)(=O)N2CCN(c3ccccc3)CC2)ccc1Cl,-53.3,i,1.9,-2.3,0.1,10.9,nt,7.8,
O=C(Nc1cccnc1)Nc1ccc2c(c1)OCO2,-22.9,i,-0.7,-5.7,5.5,9.5,-12.2,-2.5,
COc1ccc(O)c(C(=O)c2cnn(C(=O)c3cccc(N(C)C)c3)c2)c1,-72.6,nt,-10.8,-7.2,-5.3,nt,nt,nt,
CCOc1cccc(NC(=O)C2CCCN(S(=O)(=O)c3ccc(OC)cc3)C2)c1 (stereo not drawn),-8.8,i,nt,-34.2,-24.7,-16.7,11.8,1.5,
O=C(CCC(=O)NNC(=O)COc1ccc(Br)cc1)NCc1ccccc1,17.8,i,-9.0,7.8,4.0,2.2,nt,-0.8,
O=C(C1CCN(S(=O)(=O)c2cccc3nsnc23)CC1)N1CC=C(c2ccccc2)CC1,20.5,i,19.1,0.7,-12.3,-4.2,-7.6,-8.1,
O=C(CCCCCN1C(=O)c2ccccc2C1=O)Oc1ccc2c3c(c(=O)oc2c1)CCC3,-1.6,i,-24.0,7.2,5.0,2.6,5.7,-3.3,
Cc1ccc(S(=O)(=O)N2CCN(S(=O)(=O)N3CCOCC3)CC2)cc1C,-23.2,i,-8.5,8.6,0.5,3.1,-16.7,-4.9,
CCOC(=O)C(Cc1ccccc1)NC(=O)CCc1nnc2ccc(N3CCOCC3)nn12 (stereo not drawn),3.1,i,-15.7,2.9,5.3,-1.3,-29.1,1.9,
COc1ccc(CNC(=O)/C(C#N)=C2\N=C(NC(=O)c3cccs3)c3ccccc32)cc1,-6.0,i,5.2,-29.6,-0.3,0.2,nt,2.0,
O=C(Nc1cccc(C(F)(F)F)c1)Oc1ccc(Cl)c2cccnc12,23.3,i,43.2,-1.8,-18.7,4.0,-4.1,16.6,
COc1cccc(CNC(=O)C2(C)CCCCN2C)c1 (stereo not drawn),30.5,nt,nt,0.6,2.7,nt,-7.0,nt,
O=C1c2cccnc2C(=O)N1Cc1cccs1,-6.9,i,-7.0,0.6,5.4,-2.0,-10.1,-1.2,
Cc1ccc(C(C)C)cc1OCCn1cncn1,-11.9,i,0.4,1.7,2.8,22.1,-12.2,10.8,
COc1ccc(OCC(=O)Nc2ccccc2-c2ccccc2)cc1,-11.5,i,52.8,0.3,-0.9,-4.4,nt,-15.9,
O=C(Cc1n[nH]c(=O)c2ccccc12)NCc1ccccn1,nt,i,3.5,-2.9,3.8,-9.3,-6.5,-9.2,
CCOC(=O)c1cnc(SCC(=O)NNC(=O)c2ccco2)nc1N,4.5,i,-5.1,0.5,0.9,0.1,nt,-11.2,
CN1CCN(CCCNC(=O)CCN2C(=O)COc3ccccc32)CC1,-7.3,i,-17.2,0.0,2.6,nt,-4.9,nt,
COc1cccc(OCC(=O)N(C)Cc2nc(-c3cccc(C)c3)no2)c1,17.6,i,-0.4,2.8,0.8,4.4,-7.8,-1.7,
COc1cc(CNCC(O)c2ccccc2)ccc1OCc1ccc(Cl)nc1 (stereo not drawn),nt,i,11.7,-0.6,-2.8,2.1,-6.2,-15.6,
CN(C)Cc1cccc([N+](=O)[O-])c1O,14.0,i,-8.3,2.2,1.3,7.7,-19.1,-2.4,
CC(C)(C)[C@H]1COC(=O)[C@@H](Cc2ccc(F)cc2)C/C=C\C[C@@H](CC(=O)N[C@H](CO)Cc2ccccc2)C(=O)N1,17.6,nt,-13.2,0.8,-5.5,nt,2.5,nt,
Cc1ccc(C(=O)N2CCN(c3ccc(C(F)(F)F)cn3)CC2)c(C)c1,nt,i,-6.7,-4.6,-21.8,3.5,26.7,1.1,
CCn1c(C)nc2cc(C(=O)NNC(=O)c3ccc(Cl)nc3)ccc21,-8.4,i,-15.5,0.7,2.8,-9.8,-5.4,3.2,
COCCNC(=O)c1ccccc1NC(=O)Cc1ccccc1[N+](=O)[O-],-4.5,i,3.2,1.2,4.8,-7.8,-14.4,-5.1,
O=S(=O)(NCCc1ccncc1)c1ccccc1,-13.6,i,8.4,10.6,6.6,-1.2,-7.4,5.3,
CC1CCCCN1S(=O)(=O)c1ccc(S(=O)(=O)N2CCCC2)cc1 (stereo not drawn),0.2,i,-13.8,2.7,-1.1,19.7,-11.6,4.0,
CC(=O)c1cccc(NC(=O)COC(=O)CCNS(=O)(=O)c2ccccc2)c1,-5.2,nt,nt,1.5,4.3,nt,-5.4,nt,
O=C(N/N=C/c1ccccc1C(=O)O)c1ccccc1Br,-4.4,i,nt,8.7,8.6,-12.3,-9.6,1.2,
CCCC(=O)N1CCN(c2ccc([N+](=O)[O-])cc2Cl)CC1,-37.9,i,-2.5,2.2,3.8,8.3,nt,-5.2,
CCOC(=O)C1=C(N)Oc2c(oc(CO)cc2=O)C1c1c(F)cccc1Cl (stereo not drawn),15.4,i,-1.8,1.4,1.2,1.7,19.4,-6.0,
O=C(Oc1ccc(Cl)c2cccnc12)N1CCCCCC1,nt,i,nt,0.8,-0.2,-10.7,3.8,-1.7,
CN(C)C(=O)CCC(=O)N(C)CC1CCCN(CCc2ccc(F)cc2)C1 (stereo not drawn),3.8,i,0.6,-3.7,-1.1,0.4,-5.1,-2.5,
O=c1nc(N(c2ccccc2)c2ccccc2)[nH]c(=O)[nH]1,-64.8,i,-0.1,6.6,4.4,0.5,9.8,7.6,
O=C(NCc1ccco1)c1cccc(S(=O)(=O)N2CCCC2)c1,-5.4,i,nt,2.2,9.1,-5.0,-13.6,-0.9,
Cc1ccccc1OCCNC(=O)c1ccc2ccccc2n1,-98.6,i,nt,0.3,2.2,-1.3,-23.6,-2.9,
Cc1nn2c(NCCCN(C)C)c3c(nc2c1-c1ccccc1)CCCC3,7.9,i,33.0,-2.0,-5.9,-6.5,nt,-0.8,
c1ccc(-c2c3ccccc3nc3[nH]c4ccccc4c23)cc1,nt,i,78.6*,-5.2,-3.6,118.4,-18.9,-3.6,eIF4H inh retest=-3.5;PABP FP inh retest=-1.4
Nc1csnc1C(=O)O,-8.2,i,3.0,0.8,-1.0,34.1,-16.2,-10.8,
C=CCNc1nc(Nc2ccc(OC)cc2)nc(OCC)n1,nt,i,nt,1.0,1.9,5.6,-8.2,0.3,
COc1cc(C2SCCS2)cc(Br)c1Oc1ncccc1[N+](=O)[O-],-8.7,nt,-5.7,4.3,-11.5,-8.4,-7.3,-9.0,
COC(=O)CN1C(=O)C(C)=C(c2ccc(C)cc2)S1(=O)=O,nt,i,-5.3,7.0,2.3,8.3,-19.2,4.4,
Cc1nn(-c2ccccc2)c(C)c1C(=O)OCC(=O)Nc1ccccc1Cl,-184.9,nt,nt,4.0,6.1,nt,2.2,nt,
COc1ccc(C)cc1S(=O)(=O)NC1CC1,-9.3,i,-8.9,-4.3,0.6,-2.1,-18.1,-7.6,
# Later entries
SMILES,Env fusion inh,Rce1 inhib,CSC inhib,MT1-MMP act inh,MT1-MMP act inh RFP,PABP FP inh,Yeast UUG start,eIF4H inh,others
CCCCNC(=O)C(c1ccc(-c2ccccc2)cc1)N(CCN1CCOCC1)C(=O)CCCCCN1C(=O)NC(c2ccc([N+](=O)[O-])cc2)C(C(=O)OCc2ccccc2)=C1C (stereo not drawn),-40.0,nt,nt,nt,nt,-1.0,nt,-7.8,
COCCCNC(=S)N1CCN(c2nc(-c3ccc(F)cc3)cs2)CC1,107.7*,i,2.5,1.1,-19.2,-5.7,-11.8,-5.9,
Cc1ccc(OCc2cc(C(=O)N(CCO)Cc3cccs3)no2)cc1C,-40.4,i,11.8,-0.2,-0.7,4.8,11.1,4.7,
CCN(CC)c1ncnc2c1sc1nc(C)cc(C)c12,-105.0,i,10.9,-4.7,-7.1,-0.6,-21.3,-12.0,
Cc1cc(C(=O)OCC(=O)N(C)c2ccccc2)ccc1[N+](=O)[O-],-4.8,i,-1.3,-1.3,-5.0,?,3.0,-4.9,
Cc1ccc(NC(=O)CN(C)C(=O)c2ccc(Br)o2)cc1,-3.0,i,-9.0,2.4,-3.4,3.4,-15.2,3.5,
Cc1cc(N(C)C)ccc1N=Nc1ccc(N)cc1,-245.9,i,24.0,13.2,-30.7,nt,-23.9,nt,
O=C1CN(c2ccccc2)C(=O)N1,-10.9,i,-12.8,1.5,4.3,-4.4,-10.5,-22.0,
COc1cccc(OCCOc2ccccc2OC(C)C)c1,nt,i,0.2,3.7,6.5,-3.0,-2.9,-12.1,
COc1ccccc1N1CCN(C2CCCN(C(=O)CN3CCCCC3=O)C2)CC1 (stereo not drawn),-1.2,i,21.8,-10.5,-1.0,13.4,5.8,-5.7,
CCOC(=O)c1oc2ccccc2c1CSc1nnnn1-c1ccccc1,nt,i,4.8,-4.7,-2.0,-12.6,-9.6,-5.2,
C=CCn1c(SCc2c(C)noc2C)nc2sc3c(c2c1=O)CCCCC3,?,i,94.4*,-12.0,-15.3,-4.2,-2.8,-4.4,
COc1ccc(CC(=O)N[C@@H](CCSC)c2nc3ccccc3[nH]2)cc1,6.3,nt,-8.7,-1.3,-3.7,1.2,nt,8.9,
C[C@]12CC[C@@H]3c4ccc(OC(=O)c5ccccc5)cc4CC[C@H]3[C@@H]1CC[C@@H]2O,-86.5,i,7.2,4.9,-0.7,-11.9,-37.8,-2.2,
CC1(C)CC(c2nc(-c3ccc([N+](=O)[O-])cc3)cs2)CCO1 (stereo not drawn),-6.3,i,-9.5,3.3,-8.2,4.4,-4.1,2.8,
O=C(CN1C(=O)NC2(CCCCC2)C1=O)NCCc1ccccc1,-2.1,nt,-14.0,-2.6,1.6,nt,-6.8,nt,
CCC(Oc1ccccc1)C(=O)Nc1ncc([N+](=O)[O-])s1 (stereo not drawn),25.9,i,16.5,-4.8,-15.3,11.9,nt,3.0,
Cc1nn(Cc2ccccc2Cl)c(C)c1C(=O)Nc1nnc(C2CC2)s1,-9.4,i,52.8,2.1,-5.1,-3.2,0.0,-1.2,
CC(=O)Oc1ccc(OC(C)=O)c(S(=O)(=O)c2ccc(C)c(C)c2)c1,5.1,i,-4.6,1.9,-1.7,2.1,-4.3,-3.5,
